From PubChem BioAssay
PMP22 txn prim: PMP22 gene transcription modulation; AID 1508649; 43,000 compounds, 2% hits; S16 Pmp22-F2sN Schwann cells (luciferase reporters placed in the Pmp22 gene), FLuc/NLuc coincidence luminescence, 24 h; Potency, µM (top dose mostly 57.5 µM), inactives show top-dose activity change, negative = inhibition, actives largely listed as inhibitors; active = clear falling dose curves in both reporters; inconclusive = both reporters move, but less clearly or upward; inactive = either reporter flat; the % is the NLuc reporter signal; further: on the % scale 0 is the no-effect control and ±100 the full control effect; some results filed as inactive show a strong effect at the top dose
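Reporter cells (S16 Pmp22-F2sN, 500–1,000 per well) exposed to compounds for 24 h, 37C, 5% CO2; lysis with FLuc read after 10 min, then Stop&Glo and NLuc read after 10 min.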
HTT prom inh: HTT promoter inhibition. HEK293 HTT promoter firefly luciferase reporter (activity 0% = vehicle and -100% = no light), 24 h. Potency, µM (highest dose often 57.5 µM), for inactives: at the highest dose activity change, negative = inhibition, actives largely listed as inhibitors. 48,000 compounds, 0.93% hits. AID 1508623; active means well fitted inhibition curve with a large enough effect; inconclusive means small, poorly fitted or top-dose-only effect; inactive means no such curve, though single readings can be large or run the other way; further: nearly all actives have a fitted effect of over 50% in size
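HEK293 cells carrying firefly luciferase reporters were seeded at 2,500 per well in Opti-MEM and cultured for 24 h. They were then treated with compounds at up to 57.5 uM final for 24 h at 37 degrees C before Dual-Glo luminescence readout.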
Starred values were filed as active, the others as inactive; ? = inconclusive; nt = no result given; [ ] = dose if it differs, or a comment. Potency means the concentration at half of the fitted maximal effect. Compounds as they come. About 2.7% of those tested had a hit in this group.

Start of the data: the first 2 entries, ahead of the listing:
Screens in order – PMP22 txn prim, HTT prom inh
- COc1ccc(OC)c(CCNC(=O)c2cc3c(s2)-c2c(C)cccc2OC3)c1
→ 5%, -27%
- Cc1cc(=O)n2nc(N3CCC(C(=O)Nc4ccc(Br)c(C)c4)CC3)sc2n1
→ 15µM*, -14%

All compounds of this part, from the start:
Screens in order – PMP22 txn prim, HTT prom inh
- COc1ccc(OC)c(CCNC(=O)c2cc3c(s2)-c2c(C)cccc2OC3)c1
→ 5%, -27%
- Cc1cc(=O)n2nc(N3CCC(C(=O)Nc4ccc(Br)c(C)c4)CC3)sc2n1
→ 15µM*, -14%
- Cc1ccc(CCNC(=O)CCCn2c(=O)c3cccn3c3ccc(F)cc32)cc1
→ -16%, -12%
- CC(=O)CC/C=C(\C)CC/C=C(\C)CC/C=C(\C)CCC=C(C)C
→ nt, -1%
- COc1ccc(-c2ccc(=O)n(CC(=O)Nc3ccc(C)cc3C)n2)cc1
→ -7%, -7%
- COc1ccc(OC)c(-c2nc3c(C#N)c[nH]n3c2NC2CCCCC2)c1
→ ?, -16%
- CCOc1ccc(CNC(=O)c2cc3c(=O)n(C)c4ccccc4c3s2)cc1
→ 0%, -3%
- Cc1ccc(C(C)C)c(OCC(=O)NCC2(N3CCOCC3)CCCCC2)c1
→ ?, ?
- CCc1ccc(NC(=O)c2ccc(Cn3nc(N4CCN(c5ccccc5)CC4)ccc3=O)o2)cc1
→ -61%, ?
- CCC(C(=O)Nc1ccc(C(C)=O)cc1)n1cnc2nc3c(cc2c1=O)CCCC3 (stereo unspecified)
→ 16%, -15%
- CCOc1cccc(C(=O)N(Cc2ccc(C)o2)C2CCS(=O)(=O)C2)c1 (stereo unspecified)
→ -34%, -13%
- CCCn1c(=N)c(C(=O)NC(C)c2ccccc2)cc2c(=O)n3ccccc3nc21 (stereo unspecified)
→ 14µM*, -11%
- CCN(CC)c1cc2c(cc1F)c(=O)c(S(=O)(=O)c1ccc(OC)cc1)cn2Cc1ccccc1
→ ?, ?
- CCOc1ccccc1NC(=O)c1cnc(N2CCOCC2)c2ccccc12
→ -16%, -1%
- COc1ccccc1NC(=O)C1=C(C)Nc2nc(SCc3ccccc3F)nn2C1c1cccnc1 (stereo unspecified)
→ -9%, -7%
- COc1ccccc1OCC(O)CO (stereo unspecified)
→ nt, -3%
- Cc1ccc(S(=O)(=O)NCc2ccc(C(=O)NCCc3cccc(C)c3)cc2)cc1
→ -40%, -9%
- O=C(c1cccs1)c1cn(CCOc2ccccc2Cl)c2ccccc12
→ ?, ?
- COc1ccc(Cl)cc1CNCCSc1nnnn1C
→ 1%, 1%
- CCN(CC)C(=O)C1CCN(S(=O)(=O)c2c(C)noc2/C=C/c2cccc(OC)c2)CC1
→ 13%, ?
- COc1cccc2c1Oc1ncccc1N(c1ccc(C(=O)NCc3ccccc3Cl)s1)C2
→ -22%, -25%
- COc1ccc(Cn2c(SCc3ccc(C(=O)NC4CCCCC4)cc3)nc3ccncc32)cc1
→ ?, ?
- CCOC(=O)C1CCCN(S(=O)(=O)c2ccc(F)c(C(=O)Nc3ccc(F)c(F)c3)c2)C1 (stereo unspecified)
→ -12%, ?
- CCc1ccccc1N1C(=O)N(Cc2ccccc2C)c2ccccc2S1(=O)=O
→ 1%, ?
- CCC(Sc1nc(-c2ccc(F)cc2)nc2c1Cc1c(CO)cnc(C)c1O2)C(=O)Nc1ccc(F)cc1 (stereo unspecified)
→ ?, -14%
- O=S(=O)(c1ccccc1)c1nc(-c2ccc(F)cc2)oc1N1CCCCCC1
→ ?, ?
- CC1CCCCN1C(=O)CSc1c2c(nc3cc(Cl)ccc13)CCCC2 (stereo unspecified)
→ ?, -8%
- COc1cc(S(=O)(=O)NCCc2c(C)[nH]c3ccccc23)c(C)cc1C
→ ?, -14%
- O=C(Nc1ccc(OCc2cc(=O)n3ccsc3n2)cc1)c1ccc(F)cc1
→ -3%, -2%
- COC(=O)C1=C(C)NC(C)=C(C(=O)O[C@@H]2CCCN(Cc3ccccc3)C2)[C@@H]1c1cccc([N+](=O)[O-])c1
→ nt, ?
- Cc1cccc(NC(=O)CSc2ccc(-c3sc(-c4ccccc4)nc3C)nn2)c1C
→ -36%, 5%
- Cc1ncc(CO)c2c1Oc1nc(-c3ccc(Cl)cc3)nc(SCC(=O)N3CCCCC3)c1C2
→ ?, -21%
- N#Cc1c[nH]n2c(NC3CCCC3)c(-c3cccc(Cl)c3)nc12
→ ?, -2%
- CCC1CCCCN1C(=O)c1sc(-n2nc(C)c(Cc3ccccc3)c2C)nc1C (stereo unspecified)
→ -18%, 21%
- COc1cccc(C(c2c(O)cc(C)n(Cc3ccco3)c2=O)N2CCN(c3ccccc3)CC2)c1 (stereo unspecified)
→ ?, -34%
- CCOc1ccc(C(=O)Nc2ccc3oc(-c4ccncc4)nc3c2)cc1
→ 8%, ?
- COc1ccc(C)cc1NC(=O)c1cc(S(=O)(=O)NC2CCCCCC2)ccc1F
→ ?, -26%
- COc1ccc(CNC(=O)Cn2nc(C)n3cccc3c2=O)cc1
→ 6%, 11%
- CCNC(=O)C1CCCN(c2nn3cc(-c4ccc(C)cc4)nc3s2)C1 (stereo unspecified)
→ ?, ?
- CNC(=O)c1cc2n(n1)CCCN(Cc1ccc(F)cc1)C2=O
→ 8%, ?

Compound profiles, as listed above.
`O=C(Nc1ccc(OCc2cc(=O)n3ccsc3n2)cc1)c1ccc(F)cc1` is listed with PMP22 txn prim: -3%; HTT prom inh: -2%
`Cc1cccc(NC(=O)CSc2ccc(-c3sc(-c4ccccc4)nc3C)nn2)c1C` is listed with PMP22 txn prim: -36%; HTT prom inh: 5%
`COc1cc(S(=O)(=O)NCCc2c(C)[nH]c3ccccc23)c(C)cc1C` is listed with PMP22 txn prim: ?; HTT prom inh: -14%

Carrying on:
Screens in order – PMP22 txn prim, HTT prom inh
- Cc1ccc(-n2ncc(C(=O)NCCN3CCCC3)c2C2CCN(C(=O)OC(C)(C)C)CC2)cc1C
→ ?, -9%
- Cc1cc(C)c(NC(=O)CCn2c(=O)c3cccn3c3ccccc32)c(C)c1
→ ?, 4%
- CCCSCCCNC(=O)C1CCN(c2nc3ccccc3nc2C(F)(F)F)CC1
→ ?, -26%
- COc1ccc(Br)c2c1-c1nc(NC(=O)c3ccc(F)cc3)sc1C2
→ -17%, -4%
- CCCc1nc2nc(C)c(NS(=O)(=O)c3ccc(CC(C)C)cc3)c(=O)n2[nH]1
→ ?, -12%
- CCc1cnc2c(c1SCc1c(F)cccc1Cl)c(=O)n(C)c(=O)n2C
→ 2%, ?
- CCOc1ccc(CCNC(=O)c2ccc3c(c2)nc2n3CCOC2)cc1OCC
→ ?, -13%
- O=C(CC1N=C2c3ccccc3N=C(SCc3cccc(Cl)c3)N2C1=O)NCCc1ccccc1 (stereo unspecified)
→ ?, -14%
- Cn1c(=O)c(=O)n(C)c2cc(NC(=O)c3cccc(F)c3)c(Cl)cc21
→ -1%, -2%
- CCOC(=O)c1cccc(NC(=O)c2cc3cc4ccc(C)cc4nc3s2)c1
→ 11µM*, 9%
- Cc1ccc(C)c(CN2C(=O)c3ccccc3S(=O)c3ccc(C(=O)N4CCC(C)CC4)cc32)c1 (stereo unspecified)
→ ?, ?
- CN(CC(=O)Nc1cccc(C(F)(F)F)c1)S(=O)(=O)c1cccs1
→ -10%, -10%
- Nc1ccc(N=Nc2ccccc2)c(N)n1
→ nt, 29%
- CCOC(=O)Cn1c(=O)n(C2CCCCC2)c2nc(-c3ccc(OCC)cc3)nc(C(N)=O)c21
→ ?, -9%
- COc1cc(NS(=O)(=O)c2ccc(N)cc2)ncn1
→ nt, 4%
- O=C(C1CCC(Cn2c(=O)c3sccc3n(Cc3ccc(F)cc3)c2=O)CC1)N1CCOCC1 (stereo unspecified)
→ ?, -21%
- COc1cc(OC)c(NC(=O)N2CCC(CN3CCCC3)CC2)cc1Cl
→ -5%, -17%
- CSc1ccc(-c2nc3ccc(C)cn3c2Nc2ccccc2C)cc1
→ -16%, 5%
- CCc1ccccc1NC(=O)c1ccc(Cn2nc(N3CCN(c4ccccc4)CC3)ccc2=O)o1
→ ?, ?
- Cc1ccc(-c2cc(C(=O)NC(C)c3ccccc3)c3ccccc3n2)cc1C (stereo unspecified)
→ 10%, -12%
- CCOc1ccc(CNS(=O)(=O)c2ccc3c(c2)CCCN3C(C)=O)cc1OC
→ ?, ?
- CCN(CC)c1ccc(NC(=O)c2cc3c(=O)n4cccc(C)c4nc3n2C)c(C)c1
→ -3%, 0%
- Cc1cccc2c1-c1sc(C(=O)NCCCN3CCN(c4ccccc4F)CC3)cc1CO2
→ ?, ?
- CCc1ccc2ncc3c(-c4ccccc4)nn(-c4ccccc4)c3c2c1
→ -4%, -14%
- CCOc1ccc(CCNC(=O)c2sc3ncccc3c2-n2c(C)ccc2C)cc1
→ -49%, ?
- Cn1c(=O)oc2cc(S(=O)(=O)N3CCC(C(=O)NCc4ccc(F)cc4)CC3)ccc21
→ -7%, -14%
- COc1nc(-c2ccccc2)ccc1-c1noc(-c2ccccc2Br)n1
→ -19%, 10%
- CCOc1ccccc1C(=O)N1CCCCC1CCN1CCOCC1 (stereo unspecified)
→ -5%, 2%
- CC1=C(C(=O)Nc2ccc(C)cc2C)C(c2cccs2)n2nc(SCc3ccccc3Cl)nc2N1 (stereo unspecified)
→ ?, -2%
- Cc1cccc(Cn2cc(S(=O)(=O)c3cccc(C)c3)c(=O)c3cc(F)c(N4CCOCC4)cc32)c1
→ ?, -19%
- Cc1ccc(-c2n[nH]c3c2C(c2cccc(O)c2)N(c2ccc(C(=O)O)cc2)C3=O)cc1 (stereo unspecified)
→ -8%, 0%
- O=C(c1ccc2c(c1)CCN2S(=O)(=O)c1ccc(Cl)cc1)N1CCN(c2ccc(F)cc2)CC1
→ ?, ?
- COc1cccc(CCNC(=O)c2c(O)nc3c(C)cccn3c2=O)c1
→ ?, -2%
- Cc1nn(-c2ccccc2)c(OC(=O)c2ccccc2F)c1S(=O)(=O)c1ccccc1
→ 7%, 0%
- Cc1ccc(Cl)cc1NC(=O)C(=O)NCCc1sc(-c2ccc(F)cc2)nc1C
→ -16%, -16%
- COc1ccc(OCC(=O)OCc2cc(=O)n3nc(-c4cccs4)sc3n2)cc1
→ 3%, 11%
- Cc1cc(C)c(NC(=O)C2CCN(C(=O)N3CCOc4ccccc43)CC2)c(C)c1
→ -11%, ?
- CCOc1ccc(-c2cc(C(=O)NCc3ccccc3Cl)c3ccccc3n2)cc1
→ ?, -2%
- COc1ccc(C2C(C(=O)Nc3ccc(Cl)cc3)=C(C)Nc3nc(SCc4cccc(C)c4)nn32)cc1OC (stereo unspecified)
→ 11%, 2%
- CCC1CCCCN1C(=O)c1c[nH]c2ccc(S(=O)(=O)Nc3cccc(OC)c3)cc2c1=O (stereo unspecified)
→ -10%, -3%
- COc1ccc2c(c1)CC[C@H]1[C@@H]2CC[C@]2(C)[C@@H](NCCCCCCN3C(=O)C=CC3=O)CC[C@H]12
→ nt, 31%
- CC1=C(C(=O)Nc2ccccc2)C(c2cccc(Cl)c2)n2nc(SCC(=O)c3ccc(C)cc3)nc2N1 (stereo unspecified)
→ -1%, -12%
- COC(=O)c1scc(-c2ccc(C)cc2)c1S(=O)(=O)Nc1ccc(N(C)C)cc1
→ ?, 1%
- COC(=O)c1sccc1S(=O)(=O)N1CCN(c2cccc(C)c2)C(C)C1 (stereo unspecified)
→ 10%, -15%
- O=C(NCc1cccc(F)c1)c1ccc(NC(=O)c2nsc3ccccc23)cc1
→ -5%, ?
- COc1ccc(NC(=O)CSc2nc3cc(OC)c(OC)cc3c3nc(-c4ccccc4)nn23)cc1Cl
→ -14%, 3%
- COc1ccc(CCNC(=O)Cn2c(=O)n(-c3ccc(C)c(C)c3)c(=O)c3c(C)c(C)sc32)cc1OC
→ 22%, -7%
- Cc1ccc(Oc2nc3ccccn3c(=O)c2/C=C(\C#N)c2nc3ccccc3s2)c(C)c1
→ ?, -4%[11.5 µM]
- O=C(CN1C(=O)COc2ccc(S(=O)(=O)N3CCCC3)cc21)N1CCN(c2ccc(F)cc2)CC1
→ -41%, -14%
- O=S(=O)(c1ccc(C2CCCCC2)cc1)N1CCN(c2ccc(Cl)c(Cl)c2)CC1
→ 20%, -10%
- CCOc1ccccc1NC(=O)C1CCCN1S(=O)(=O)c1ccc2nc(-c3ccccc3)[nH]c2c1 (stereo unspecified)
→ ?, ?
- CCN(C(=O)CSc1nc2n[nH]c(C)c2c(=N)n1-c1cccc(OC)c1)c1cccc(C)c1
→ ?, ?
- Cc1nc(-c2ccccc2)sc1-c1ccc(SCC(=O)NCc2ccc(Cl)cc2)nn1
→ -47%, 15%
- Cc1nn(-c2ccccc2)c(OC(=O)c2ccccc2)c1S(=O)(=O)c1ccccc1
→ 1%, -8%
- CC(C)(C)OC(=O)N1CCC(c2c(C(=O)O)cnn2-c2ccc(F)cc2F)CC1
→ -2%, 7%
- Cc1ccc(Nc2cc(=O)[nH]c(=O)[nH]2)cc1C
→ ?, -3%
